gsp antagonist: antagonizes gsp, the McCune-Albright syndrome mutation; AID 624288; gsp-mutant cells, cAMP HTRF, 30 min; control for the full effect not named in the record; Potency, µM (series often up to 76.9 µM), without a hit: at the highest dose activity change, negative = inhibition, usual class: inhibitors; 340,000 compounds, 0.4% hits; active = falling curve of any shape with a large fitted effect; inconclusive = falling curve, mostly with a smaller effect; inactive = flat or rising curve; cell line not stated here;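 also: intracellular cAMP measured with PDE inhibitor Ro 20-1724 present during compound exposure; potency is read from the fitted curve at half-maximal effect; % is scaled to controls: 0 for no effect and ±100 for the full control effect; nearly all actives have a fitted effect of over 65% in size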
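G418-selected cells were plated in DMEM/10% FBS for 16-24 h at 37C, then treated with compounds plus the PDE inhibitor […] (300 uM solution added) for 30 min at 37C. Intracellular cAMP was measured by HTRF after 30 min lysis at room temperature.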
ClpP mod: qHTS Assay for Activators of ClpP | Potency, µM (titrated, usually from 57.5 µM), without a hit: top-dose activity change, negative = active | purified B. subtilis ClpP, FRET peptide cleavage, 20 min | AID 651965, 2013 | 340,000 compounds, 1.9% hits; active = well fitted falling curve with a large enough effect; inconclusive = small, poorly fitted or top-dose-only effect; inactive = no such curve, though single readings can be large or run the other way; also: potency is read from the fitted curve at half-maximal effect; the source files actives as falling curves though it sought activators and does not explain the sign; nearly all actives have a fitted effect of over 65% in size; many hits overshoot -100%
Target sequence (P80244 whole entry, looked up): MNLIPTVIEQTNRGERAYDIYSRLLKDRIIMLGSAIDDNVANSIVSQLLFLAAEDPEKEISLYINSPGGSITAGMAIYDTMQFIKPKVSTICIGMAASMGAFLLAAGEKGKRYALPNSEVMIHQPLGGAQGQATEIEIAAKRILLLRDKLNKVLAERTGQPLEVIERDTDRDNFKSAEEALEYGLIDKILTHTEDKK
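Buffer: 100 mM Tris/HCl pH8, 100 mM KCl, 0.05% low protease BSA, 2.5% glycerol, 0.01% Tween-20. ClpP 10 microg/mL final; 20 min RT; delta FRET normalized to ADEP and DMSO controls.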
gsp agonist: gsp mutant agonism | Potency, µM (highest dose often 76.9 µM), inactives show at the highest dose activation (cAMP increase), hits mostly activators | gsp mutant cells, cAMP HTRF, 30 min; control for the full effect not named in the record | 340,000 compounds, 0.13% hits; active = well fitted activation curve with a large enough effect; inconclusive = small, poorly fitted or top-dose-only effect, or another doubt; inactive = no such curve, though single readings can be large or run the other way; cell line not stated here;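 also: phosphodiesterase inhibitor Ro 20-1724 added with compounds to block cAMP breakdown; potency is read from the fitted curve at half-maximal effect; nearly all actives have a fitted effect of over 60% in size; about a fifth of the inactives were tested at one dose only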
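Cells in DMEM/10% FBS with G418 were pretreated with compounds in DMSO plus […] (300 uM stock) for 30 min at 37C. cAMP was measured by HTRF (cAMP-d2 plus anti-cAMP antibody-K) after 30 min at room temperature.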
Sfp inh: Sfp phosphopantetheinyl transferase inhibition; Q9F4F7; Biochemical Sfp PPTase activity, qHTS; Potency, µM, inactives show max response, negative = inhibition, hits mostly inhibitors; 310,000 compounds, 3.5% hits; AID 1490; active = well fitted inhibition curve with a large enough effect; inconclusive = small, poorly fitted or top-dose-only effect, or another doubt; inactive = no such curve, though single readings can be large or run the other way;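 also: the enzyme is Sfp with the accession as filed and its product quenches rhodamine fluorescence; potency is read from the fitted curve at half-maximal effect; 0% = enzyme reaction without inhibitor and -100% = no enzyme wells; top concentration of the series not given in the record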
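Sfp 15 nM + cpd, 15 min RT; start w/ rhodamine-CoA 5 uM, BHQ-2-YbbR 12.5 uM (final); 50 mM Hepes pH 7.6, 10 mM MgCl2, 0.01% NP-40, 0.01% BSA; read 525/598 nm at 0 and 30 min.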
Menin-MLL FL inh: inhibitors of human menin-MLL interaction, wild-type MLL peptide; Fluorescence polarization, fluorescein-MLL peptide displacement from menin; FP activity change, % at 61.4 µM; 290,000 tested, under 10 active; AID 1766; inconclusive = falling polarisation curve, or a change in total fluorescence; inactive = total fluorescence flat and polarisation flat or rising; no compound was filed as active; the % refers to the polarisation; negative = inhibition;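 also: % of control where 0% means no effect; inhibitors lower the polarisation; unlabelled MLL peptide was the positive control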
D2 potentiator: human D2 receptor positive allosteric modulation; P14416; DiscoveRx D2 beta-arrestin cells, luminescence, 90 min; 100% = 57 uM dopamine signal; potentiation, % (concentration not given with the values); 360,000 compounds, 0.23% hits; AID 624464; active = potentiation of 50% or more; inconclusive = 30% to 50%; inactive = 30% or less;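 also: tested on top of an EC20 dose of dopamine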
Target sequence (P14416 whole entry, looked up): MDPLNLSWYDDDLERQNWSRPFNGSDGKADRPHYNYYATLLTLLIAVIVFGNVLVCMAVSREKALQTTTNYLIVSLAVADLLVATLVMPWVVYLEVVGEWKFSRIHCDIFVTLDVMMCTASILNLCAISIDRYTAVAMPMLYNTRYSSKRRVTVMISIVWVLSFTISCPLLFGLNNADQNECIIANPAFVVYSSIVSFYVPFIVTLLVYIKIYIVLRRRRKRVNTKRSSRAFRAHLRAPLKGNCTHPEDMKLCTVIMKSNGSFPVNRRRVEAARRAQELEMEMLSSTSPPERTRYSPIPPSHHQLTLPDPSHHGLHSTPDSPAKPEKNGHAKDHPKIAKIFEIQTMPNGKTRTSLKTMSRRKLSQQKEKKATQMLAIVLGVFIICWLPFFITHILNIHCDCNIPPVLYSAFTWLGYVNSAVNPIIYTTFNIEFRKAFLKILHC
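PathHunter D2 cells, attached overnight at 37 deg C, received compound in DMSO plus dopamine at EC20 (50 nM final) for 90 min at 37 deg C. Beta-arrestin recruitment was read as luminescence after 1 h with detection reagent at ambient temperature.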
TRPV1 potentiator: potentiators of human vanilloid receptor 1 (TRPV1) | 320,000 compounds, 0.02% hits | potentiation, % at 8.33 µM | Q8NER1 | AID 540277 | TRPV1-expressing cells, Fluo-8 calcium influx, capsaicin EC20 potentiation; host cell line not named in the record; control for the full effect not named in the record; active means potentiation above 80%; inconclusive means 30% to 80%; inactive means below 30%; also: 0% is about no effect
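Fluo-8 calcium influx in TRPV1-expressing cells, kinetic read (ex 480/em 520 nm). Compound added and read 3 min for agonist activity, followed by capsaicin at EC20 final and 2 min further read for enhancement.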
An asterisk follows results filed as active; u = inconclusive; x = no result given; & = joins results of further samples; [ ] = dose if it differs, or a comment.

SMILES	gsp antagonist	ClpP mod	gsp agonist	Sfp inh	Menin-MLL FL inh	D2 potentiator	TRPV1 potentiator
Nn1cnnc1N/N=C/c1ccc(Cl)cc1Cl	16%	-0.7%	-2%	56µM*	0.5	-12	-3
NS(=O)(=O)c1ccc(NC(=S)N2CCN(C(=O)C3CCCO3)CC2)cc1 (stereo not given)	7%	1.7%	10%	-18%	x	-1	6
CC(=O)N1N=C(c2ccco2)CC1c1cc2cc(C)ccc2nc1Cl (stereo not given)	-6%	x	10%[15.4 µM]	-1%	-1.3	-6	5
CCSc1nc(O)c(CC)c(=O)n1C(C)CC (stereo not given)	-2%	0.4%	u	u	5.1	-6	3
Oc1ccc(/C=N/Nc2nccnc2Cl)cc1	-2%	-2.5%	32%	-30%	-1.8	-4	-11
N#Cc1ccccc1OCC(=O)C1CC1	5%	x	-14%[15.4 µM]	22%	2.3	-10	17
CN1CCC(CN)(N2CCN(c3ccccc3)CC2)CC1	-2%	0.9%	-3%	13%	1.5	-8	21
O=c1c2ccccc2c2ccccc2c(=O)n1Cc1cccnc1	11%	-3.0%	-63%[inhibitor]	4%	6.1	4	-9
CN(Cc1ccccc1)C(=O)c1ncn(Cc2ccccc2)c1C(=O)N(C)Cc1ccccc1	-7%	1.1%	19%	x	x	9	0
COc1ccc(C(=O)NC2CCCc3ccccc32)c(OC)c1OC (stereo not given)	-48%	x	5%[15.4 µM]	2%	-2.1	-2	u
OCCCC1CCCN(Cc2cn[nH]c2-c2ccc(F)cc2F)C1 (stereo not given)	17%	-2.7%	-4%	18%	-3.4	-14	0
CSc1nnc2c3c4c(sc3nc(-n3nc(C)cc3C)n12)COC(C)(C)C4	-4%	0.4%	-26%	-11%	2.3	1	5
Cc1ccc(-c2nc3ccc(Cl)cc3n2OC(C)C(=O)O)cc1 (stereo not given)	u	3.6%	-94%[inhibitor]	28%	-1.9	0	-1
O=C(Nc1ccc(C(=O)O)cc1)/C(=C\c1ccc([N+](=O)[O-])cc1)NC(=O)c1ccco1	x	-1.4%	-16%	x	x	19	x
c1ccc2c(c1)Cn1nnnc1-2	0%	-1.5%	5%	-4%	0.3	-2	0
O=C(c1csc2ccccc12)N1CCCCCC1	-8%	0.2%	0%	3%	-5.5	-6	17
CCOc1cccc(-c2nc3c(s2)CCc2onc(-c4cccc([N+](=O)[O-])c4)c2-3)c1	8%	-0.8%	15%	x	x	-7	-19
COC(=O)C1CCN(S(=O)(=O)Cc2ccccc2Cl)CC1	4%	-0.7%	-1%	19%	-5.0	-3	14
O=C(c1ccccc1Cl)N(Cc1ccccc1F)N1C(=O)CCCC1=O	13%	x	5%[15.4 µM]	21%	3.2	-7	-5
Cc1ccc(-c2cc(C(=O)N3N=C(C(F)F)CC3(O)C(F)F)c3ccccc3n2)cc1C (stereo not given)	-22%	25µM*	-8%	23%	2.6	-5	-18
O=[N+]([O-])c1ccccc1Nc1cccnc1	5%	-2.8%	x	x	x	-14	u
COc1ccc(/C(O)=C2/C(=O)C(=O)N(c3ccccn3)C2c2ccc(F)cc2)cc1 (stereo not given)	-4%	-1.2%	u	27%	-0.3	-2	1
COc1ccccc1C(=O)NCC(=O)N(C)Cc1nc2ccccc2c(=O)[nH]1	x	1.4%	-33%[inhibitor]	x	x	-8	x
O=C(CSc1nc(-c2ccco2)cc(C(F)(F)F)n1)Nc1ccc(C(=O)N2CCOCC2)cc1	-2%	4.5%	0%	10%	0.8	-3	3
CSc1nsc(SCc2ccc(Cl)cc2)n1	-12%	-1.2%	26%	24%	1.5	4	1
O=C(CCC(=O)c1ccc(Cl)cc1)OCC(=O)c1ccccc1	6%	32µM*	0%	-4%	1.7	-7	7
Cc1cc(OCc2ccc(C(=O)n3cccn3)o2)ccc1Cl	-1%	1.7%	0%	-15%	4.9	-9	-6
COc1cccc(CN2C(=O)Nc3ccccc3C(=O)N2C(C)(C)C)c1	-5%	-0.8%	u	7%	0.1	5	-21
COC(=O)C1(CC2CC(c3cccc(Br)c3)=NO2)CCN(C(=O)OC(C)(C)C)CC1 (stereo not given)	-27%	0.6%	-48%[inhibitor]	-7%	-4.1	-14	-1
N#Cc1ccc(OCC(=O)n2cc(C(=O)c3cc(Cl)cc(Cl)c3O)cn2)cc1	-2%	-15%	u	3%	2.0	-11	1
CC(=O)c1cc(NC(=O)c2ccccc2)c(=O)oc1C	-5%	x	-8%[15.4 µM]	u	0.1	-11	5
C=CCN(c1ccccc1OC)S(=O)(=O)c1cccc(C(=O)OCC(=O)c2c(N)n(C)c(=O)n(C)c2=O)c1	-13%	-1.4%	0%	x	x	-14	x
O=C(COC(=O)c1ccccc1SCC(=O)NC1CCS(=O)(=O)C1)NC1CCS(=O)(=O)C1 (stereo not given)	10%	x	1%[15.4 µM]	-6%	-2.4	-3	14
O=C(NC(=S)Nc1ccccc1O)c1cccnc1	0%	x	-36%[inhibitor]	-12%	-1.6	-13	u
CC(C)(CO)NC(=O)Nc1ccc(Cl)c(Cl)c1	0%	x	-1%[15.4 µM]	-3%	-0.9	-6	-12
COc1ccc(C(=O)NC(=O)CSc2n[nH]c(N)n2)cc1	8%	x	14%	x	x	-6	x
COCCNC(=S)N(CCc1c(C)[nH]c2ccc(OC)cc12)Cc1ccco1	-14%	-2.9%	25%[15.4 µM]	7%	-4.5	0	29
COc1ccc(Cl)cc1NC(=O)C1CCCO1 (stereo not given)	2%	-3.6%	-40%[inhibitor]	-3%	0.7	-11	-3
Cn1cc(Br)c(C(=O)N2CCN(c3cccc(Cl)c3)CC2)n1	10%	0.7%	-52%[inhibitor]	0%	-0.2	-2	16
CCS(=O)(=O)c1nc2ccccc2n1CC(=O)N1CCOCC1	-1%[15.4 µM]	0.6%	-11%	7%	0.6	0	24

Structures listed so far printed as active in Sfp inh.
| smiles | gsp antagonist | gsp agonist | Sfp inh | Menin-MLL FL inh | D2 potentiator |
| --- | --- | --- | --- | --- | --- |
| Nn1cnnc1N/N=C/c1ccc(Cl)cc1Cl | 16% | -2% | 56µM* | 0.5 | -12 |

2 compounds from above with just Sfp inh, gsp antagonist and TRPV1 potentiator:
Molecule	Sfp inh	gsp antagonist	TRPV1 potentiator
COC(=O)C1(CC2CC(c3cccc(Br)c3)=NO2)CCN(C(=O)OC(C)(C)C)CC1 (stereo not given)	-7%	-27%	-1
CC(=O)c1cc(NC(=O)c2ccccc2)c(=O)oc1C	u	-5%	5

Carrying on.
SMILES	gsp antagonist	ClpP mod	gsp agonist	Sfp inh	Menin-MLL FL inh	D2 potentiator	TRPV1 potentiator
Nc1[nH]c(N=NC(=O)c2ccc(Cl)cc2)c2ccccc12	6%	2.3%	14%	-11%	1.8	-20	-11
C/C(=N\Nc1ccc(C(=O)O)cc1)c1ccc2c(c1)Nc1ccccc1S2	u	x	7%[15.4 µM]	-21%	2.9	8	-12
CC(=O)N1CCc2c(sc(NC(=O)C3CCCCC3)c2C(N)=O)C1	-3%	-21%	22%	3%	u	3	15
COC(=O)c1cc(=O)n(CCc2ccccc2F)c(=Nc2ccc(F)c(Cl)c2)s1	-7%	2.1%	-30%	3%	1.7	-10	14
C#CCOCCOCCOCCNc1nc(N2CCN(C(=O)CCCCCCCCCCNC(=O)[C@H]([C@@H](C)CC)n3cc(CCCCCN)nn3)CC2)nc(N2CCN(C(=O)CCCCCCCCCCNC(=O)[C@H](CCCCN)n3cc(CCCC(=O)O)nn3)CC2)n1	2%	-21%	x	x	x	-5	-13
CCOC(=O)NC(=O)CSc1ccc(S(=O)(=O)N2CCCCC2)cn1	-13%	1.2%	27%	x	x	7	x
COc1ccc(N2CCN(CCCNS(=O)(=O)c3c(C)noc3/C=C/N(C)C)CC2)cc1	x	x	x	4%	2.4	x	4
Cc1ccc(-c2cccc(C(=O)NCc3ccccc3)n2)c2ccccc12	-7%	4.0%	-1%	2%	-1.7	3	-16
COc1ccc(Cl)cc1Nc1ncnc2sc(C)c(S(=O)(=O)N3CCC(C)CC3)c12	-16%	32µM*	u	-10%	1.5	2	-1
COc1ccccc1NC(=O)c1ccc(NS(C)(=O)=O)cc1	-4%	-1.2%	-50%[inhibitor]	18%	10	-10	0
COc1ccc(-c2noc(CSc3nnc(-c4ccccc4)n3C)n2)cc1	u	1.6%&-1.7%	-15%	-11%	2.4	-5	-1
Cc1ccc(C(=O)OCC(=O)N(CC(C)C)c2c(N)n(Cc3ccccc3)c(=O)[nH]c2=O)s1	6%	-0.9%	-3%[15.4 µM]	7%	x	-4	-1
CCOc1ccc2[nH]cc(C(=O)N3CCN(CC)CC3)c(=O)c2c1	2%	u	-31%[inhibitor]	-2%	1.7	-7	11
Cn1nnnc1SCC(=O)Nc1cc(C(=O)O)cc(C(=O)O)c1	-1%	0.1%	15%	7%	-1.4	-16	5
O=C(CCCC(=O)c1ccccc1)NCCc1ccccc1F	4%	-0.4%	6%	6%	2.3	-1	13
O=C(NC1(C(F)(F)F)NC(=O)N(Cc2cccnc2)C1=O)c1ccncc1 (stereo not given)	-1%	0.3%	-23%	-1%	4.1	8	4
CC(=O)N1CCN(C(=O)CSc2nc3c(cnn3-c3ccccc3)c(=O)[nH]2)CC1	4%	0.5%	u	12%	11	-27	3
Cc1ccccc1NC(=O)Cn1c(C)nc2ccc(N)cc2c1=O	3%	28µM*	u	7%	0.8	3	8
Cc1cc(C)c(C#N)c(Nc2ccccc2)n1	-3%	u	13%	10%	2.3	-3	5
COc1cc2oc(=O)cc(-c3cccc(-c4cccc(C)c4)c3)c2c(OC)c1OC	u	u	x	8%	-0.3	x	x
CC(C)CCNC(=O)c1ccc(NC(=O)C2=CSCCO2)cc1	-1%	-2.9%	-52%[inhibitor]	5%	x	-10	-9
CC(C)c1ccc(N(C(=O)c2ccco2)C(C(=O)NC2CCCC2)c2ccncc2)cc1 (stereo not given)	-3%	-2.2%	-5%[15.4 µM]	7%	-3.0	-3	-8
CCC(C)N1C(=O)S/C(=C/c2ccc(N3CCOCC3)cc2C)C1=O (stereo not given)	-16%	x	20%[15.4 µM]	-1%	13	-3	29
CCNC(=O)C1CC(=O)N(c2ccc(OCC)cc2)C1 (stereo not given)	4%	0.0%	-77%[inhibitor]	-6%	0.4	15	2

Screens from PubChem BioAssay.
